Source: PubChem BioAssay
StopGo reporter: lowers the luciferase signal of an FMDV 2A StopGo reporter; human cells with a luciferase reporter of 2A StopGo recoding; control for the full effect not named in the record; Potency, µM (top dose mostly 57.9 µM), for inactives: top-dose signal change, negative = less light; 410,000 tested, 1.2% active; active = well fitted falling curve with a large enough effect; inconclusive = small, poorly fitted or top-dose-only effect; inactive = no such curve, though single readings can be large or run the other way; tested in HEK293T cells; also: % is scaled to controls: 0 for no effect and ±100 for the full control effect; nearly all actives have a fitted effect of over 45% in size; luciferase light after 4 h
Cruzain noTriton: blocks cruzain activity in detergent-free assay. P25779. purified cruzain, Z-FR-AMC fluorescence, no detergent. Potency, µM, without a hit: max response, negative = inhibition, most hits filed as inhibitors. 200,000 tested, 2.3% active;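 also: plate controls were enzyme without inhibitor for no effect and buffer without enzyme for full effect; nearly all actives have a fitted effect of over 40% in size; top concentration of the series not given in the record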
Target sequence (P25779 123-467 limits assumed): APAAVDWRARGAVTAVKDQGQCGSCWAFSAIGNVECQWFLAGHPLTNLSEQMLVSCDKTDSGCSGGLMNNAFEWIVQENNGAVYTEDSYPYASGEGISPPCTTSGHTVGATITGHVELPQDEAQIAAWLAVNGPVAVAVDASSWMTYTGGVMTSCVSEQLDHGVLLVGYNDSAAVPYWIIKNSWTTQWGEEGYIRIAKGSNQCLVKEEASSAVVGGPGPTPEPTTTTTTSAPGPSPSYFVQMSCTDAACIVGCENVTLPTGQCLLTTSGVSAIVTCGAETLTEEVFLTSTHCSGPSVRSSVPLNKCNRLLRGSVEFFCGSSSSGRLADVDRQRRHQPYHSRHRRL
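Detergent-free condition (0.00005% Triton X-100) in acetate buffer pH 5.5 with DTT. 1.5 nM enzyme and compound were pre-mixed 15 min, then 2 uM Z-FR-AMC substrate added; reaction progress from fluorescence change between first and third reads (60 s).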
Lassa entry inh: blocks Lassa virus binding to or entry into cells; Lassa virus pseudotype entry inhibition, cell reporter; control for the full effect not named in the record; Potency, µM (titrated, usually from 37.9 µM), without a hit: at the highest dose activity change, negative = inhibition, hits mostly inhibitors; 300,000 tested, 1.2% active; active means well fitted inhibition curve with a large enough effect; inconclusive means small, poorly fitted or top-dose-only effect, or effect the other way; inactive means flat fitted curve, though single readings scatter; tested in HEK293 cells; also: % is scaled to controls: 0 for no effect and ±100 for the full control effect; nearly all actives have a fitted effect of over 50% in size; luciferase read-out
SARS PLP yeast: SARS-CoV PLP inhibition in yeast; 330,000 tested, 0.19% active; S. cerevisiae expressing SARS-CoV PLpro, growth rescue; control for the full effect not named in the record; Potency, µM (series often up to 32.9 µM), without a hit: at the highest dose activity, positive = growth rescue; active means well fitted rising curve with a large enough effect; inconclusive means small, poorly fitted or top-dose-only effect; inactive means no such curve, though single readings can be large or run the other way; also: 0% is about no effect; nearly all actives have a fitted effect of over 55% in size; growth read by luminescence after 48 h
RE007 growth inh: less growth of the S. pombe RE007 Vpr strain. S. pombe RE007 Vpr strain, BacTiter-Glo ATP luminescence, 24 h; control for the full effect not named in the record. Potency, µM (highest dose often 92.2 µM), for inactives: at the highest dose activity change, negative = less growth. 360,000 tested, 0.21% active. AID 651644; active = well fitted falling curve with a large enough effect; inconclusive = small, poorly fitted or top-dose-only effect; inactive = no such curve, though single readings can be large or run the other way;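 also: % is scaled to controls: 0 for no effect and ±100 for the full control effect; nearly all actives have a fitted effect of over 50% in size; the assay follows cell death caused by Vpr and the record does not say whether a fall means rescue or toxicity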
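Fission yeast RE007 carrying one integrated HIV-1 vpr copy, seeded at OD 0.01 in PMG+AL medium with 23 nL pinned compound. Grown 24 h at 30 degrees; viability read by BacTiter-Glo luminescence after 5 min.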
Marburg entry inh: blocks Marburg virus binding to or entry into cells; Marburg virus pseudotyped entry inhibition, cell reporter; control for the full effect not named in the record; about a third of the inactives were read at about 46 µM; Potency, µM (doses to about 37.8 µM), for the others: at the top dose activity change, negative = inhibition, hits mostly inhibitors; 300,000 tested, 1.8% active; active = well fitted inhibition curve with a large enough effect; inconclusive = small, poorly fitted or top-dose-only effect, or effect the other way; inactive = flat fitted curve, though single readings scatter; tested in HEK293 cells; about a fifth of its hits are not listed in these tables; also: % is scaled to controls: 0 for no effect and ±100 for the full control effect; luciferase read-out
Cruzain Triton: inhibitors of Trypanosoma cruzi cruzain with detergent. P25779. purified cruzain, Z-FR-AMC fluorescence, 0.01% Triton. Potency, µM, inactives show max response, negative = inhibition, hits mostly inhibitors. 200,000 tested, 0.43% active. AID 1478;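 also: plate controls were neutral wells for no effect and buffer without enzyme for full effect; nearly all actives have a fitted effect of over 40% in size; top concentration of the series not given in the record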
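Detergent-containing run (0.01% Triton X-100) in acetate buffer pH 5.5 with 5 mM DTT: enzyme at 1.5 nM final, 15 min compound preincubation at room temperature, then 2 uM Z-FR-AMC substrate. Activity taken as 60 s fluorescence increase at 360/450 nm.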
NS1 function inh: influenza NS1 inhibition | S. cerevisiae slowed by influenza A NS1, growth recovery by OD600 | Potency, µM (series often up to 46.1 µM), for the others: at the highest dose activity, positive = more growth | 270,000 tested, 0.4% active; active means well fitted rising curve with a large enough effect; inconclusive means small, poorly fitted or top-dose-only effect; inactive means no such curve, though single readings can be large or run the other way; also: nearly all actives have a fitted effect of over 50% in size
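OD600 was taken as the measure of yeast growth restored by compound in an NS1-expressing S. cerevisiae strain. Cells had been washed out of glucose medium and diluted 1:100 into galactose -URA medium, pH 6.0.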
An asterisk follows results filed as active; u = inconclusive; x = no result given; & = joins results of further samples; [ ] = another dose, or the depositor's remark. Unless noted, calls follow the shape of the dose curve; as a rule, active = well fitted curve in the direction sought with a large enough effect; inconclusive = small, poorly fitted or top-dose-only effect, or another doubt; inactive = no such curve, though single readings can be large; an effect the other way counts as inactive or inconclusive. Potency is read from the fitted curve at half-maximal effect. Compounds as they come (roughly 4.7% active in at least one column).

SMILES	StopGo reporter	Cruzain noTriton	Lassa entry inh	SARS PLP yeast	RE007 growth inh	Marburg entry inh	Cruzain Triton	NS1 function inh
O=C(/C=C/c1ccc(Cl)c([N+](=O)[O-])c1)Nc1ccc(N2CCCC2)c(Cl)c1	-18.5%	20µM*	-1.8%	6.7%	2.9%	u	-1.9%	13.1%
O=C(C1CCC1)N1CCCc2cc(S(=O)(=O)Nc3ccc(F)cc3)ccc21	23.9%	-12.5%	u	x	x	x	-5.5%	x
CCOC(=O)CC(NC(=O)c1ccco1)c1ccc(C)cc1 (centres undefined)	-5.2%	7.2%	9.5%	0.7%	13.0%	-5.4%	1.6%	-3.3%
Cc1nnc(N2CCCC(C(=O)NCCc3ccc(Cl)cc3)C2)c2nn(-c3ccccc3)c(C)c12 (centres undefined)	-21.0%	7.0%	9.7%[46.1 µM]	x	x	x	-4.9%	x
CC(=O)c1ccc(NC(=O)C2CCC(CNS(=O)(=O)c3cccc4nsnc34)CC2)cc1 (centres undefined)	-9.5%	-4.3%	23.8%[46.1 µM]	x	x	18.7%[46.1 µM]	-1.9%	x
Clc1ccc(-c2ncc3ccccn23)c(Cl)c1	17.6%	x	14.8%[46.1 µM]	0.1%	-20.5%	-1.4%[46.1 µM]	x	-7.2%
Cc1ccc(C(=O)NCC(=O)Nc2ncccc2C)s1	4.4%	x	16.2%	-3.8%	13.2%	-3.5%[46.1 µM]	x	x
CC(C)C(c1nnnn1Cc1ccccc1)N(Cc1ccco1)Cc1cccs1 (centres undefined)	u	-15.7%	u	-24.6%	11.7%	u	-4.9%	0.7%
Cc1nc2c(sc3nc(N4CCOCC4)c4c(c32)CC(C)(C)OC4)c(-c2ccc(Cl)cc2)c1C(=O)O	-22.8%	x	x	-0.5%	19.1%	x	x	u
CN(C)c1nc(-c2ccc([N+](=O)[O-])cc2)cs1	17.2%	-7.0%	-8.3%	0.2%	-23.7%	-2.1%	-10.2%	-6.7%
CCc1ccc(NC(=O)CSc2nc3c(c(=O)[nH]2)CN(Cc2ccc(C)cc2)CC3)cc1	-7.6%	0.9%	u	x	x	10.7%[46.1 µM]	7.0%	x
COC(=O)c1cc(S(=O)(=O)N2CCOCC2)c(N2CCOCC2)cc1N1CCOCC1	-10.5%	0.4%	2.2%	0.0%	22.0%	-0.2%&-0.2%	2.5%	1.2%[9.22 µM]
CC(C)(C)NC(=O)COC(=O)c1cc(Cl)ccc1[N+](=O)[O-]	-5.4%	x	13.8%[46.1 µM]	1.1%	5.5%	13.0%[46.1 µM]	x	x
Cc1ccc(NC(=O)c2c([N+](=O)[O-])c(C(C)(C)C)nn2C)cc1	0.9%	3.3%	-4.2%	1.6%	23.9%	3.6%	-4.9%	-0.4%
CCCCNC(=O)CCCCC(=O)N/N=C/c1cccc(Cl)c1	-15.6%	-3.0%	-6.9%	-5.7%	-5.1%	-0.1%	-1.3%	24.7%
CC(=O)CC(=O)Nc1ccc2ccccc2c1	27.2%	0.8%	x	1.1%	x	x	-2.1%	0.0%&-31.6%
Nc1c(C(=O)NCCN2CCOCC2)c2nc3ccccc3nc2n1-c1ccc2c(c1)OCO2	x	-18.1%	6.9%	6.2%	8.4%	7.0%&-22.5%	-1.9%	-23.1%
CC(=O)Nc1ccc(NC(=O)Nc2cccc(Cl)c2)cc1	15.8%	x	x	-0.3%	9.0%	x	x	5.7%
Cc1cc(C)c2c(=O)cc(CSc3n[nH]c(C)n3)[nH]c2c1	-0.9%	-16.7%	-21.7%[46.1 µM]	x	x	x	1.4%	x
CC(C)OCCCNC(=O)CCCn1c(SCC(=O)c2ccc(Br)cc2)nc2c(sc3ccccc32)c1=O	-4.4%	-9.2%	2.9%[46.1 µM]	x	x	13.8%[46.1 µM]	2.5%	x

In another format: entries from further up.
Molecule | StopGo reporter | Cruzain noTriton | Lassa entry inh | SARS PLP yeast | RE007 growth inh | Marburg entry inh | Cruzain Triton | NS1 function inh
CCc1ccc(NC(=O)CSc2nc3c(c(=O)[nH]2)CN(Cc2ccc(C)cc2)CC3)cc1 | -7.6% | 0.9% | u | x | x | 10.7%[46.1 µM] | 7.0% | x
COC(=O)c1cc(S(=O)(=O)N2CCOCC2)c(N2CCOCC2)cc1N1CCOCC1 | -10.5% | 0.4% | 2.2% | 0.0% | 22.0% | -0.2%&-0.2% | 2.5% | 1.2%[9.22 µM]
CC(C)(C)NC(=O)COC(=O)c1cc(Cl)ccc1[N+](=O)[O-] | -5.4% | x | 13.8%[46.1 µM] | 1.1% | 5.5% | 13.0%[46.1 µM] | x | x
Cc1ccc(NC(=O)c2c([N+](=O)[O-])c(C(C)(C)C)nn2C)cc1 | 0.9% | 3.3% | -4.2% | 1.6% | 23.9% | 3.6% | -4.9% | -0.4%
CCCCNC(=O)CCCCC(=O)N/N=C/c1cccc(Cl)c1 | -15.6% | -3.0% | -6.9% | -5.7% | -5.1% | -0.1% | -1.3% | 24.7%
CC(=O)CC(=O)Nc1ccc2ccccc2c1 | 27.2% | 0.8% | x | 1.1% | x | x | -2.1% | 0.0%&-31.6%
Nc1c(C(=O)NCCN2CCOCC2)c2nc3ccccc3nc2n1-c1ccc2c(c1)OCO2 | x | -18.1% | 6.9% | 6.2% | 8.4% | 7.0%&-22.5% | -1.9% | -23.1%
CC(=O)Nc1ccc(NC(=O)Nc2cccc(Cl)c2)cc1 | 15.8% | x | x | -0.3% | 9.0% | x | x | 5.7%

The listing continues:
SMILES	StopGo reporter	Cruzain noTriton	Lassa entry inh	SARS PLP yeast	RE007 growth inh	Marburg entry inh	Cruzain Triton	NS1 function inh
CC(=O)Nc1nn(C)c2nc(C)cc(C)c12	5.4%	x	-0.3%	0.0%	10.5%	3.5%	x	11.1%
O=C(Cn1cnc2c(nnn2Cc2ccc(Cl)cc2)c1=O)NCc1ccco1	12.7%	-16.7%	-27.7%	14.1%	8.3%	u	-3.8%	3.3%
CN1CCC(OC(=O)c2cc3cc(Br)ccc3oc2=O)CC1	-25.6%	x	14.6%[46.1 µM]	-2.5%	-7.4%	12.2%&12.2%[46.1 µM]	x	11.5%
Cc1cc(C(=O)COc2ncnc3sccc23)c(C)n1C1CC1	x	-7.3%	1.0%	-0.6%	-2.7%	7.0%	-0.5%	-47.8%
Cc1ccc(CNC(=O)c2c(C)oc3ncnc(N4CCOCC4)c23)cc1	-13.2%	-8.1%	-2.4%[46.1 µM]	x	x	x	-2.6%	x
CC1Oc2ccccc2N(CC(=O)NCCc2ccccc2)C1=O (centres undefined)	-6.5%	-1.2%	3.4%	7.4%	-20.2%	-1.1%	1.5%	-2.6%
C/C(=N/OC(=O)c1ccc(Br)cc1)c1ccc(C)cc1	10.0%	x	u	11.3%	3.4%	-8.6%	x	17.4%
COc1ccc(NC(=O)c2noc3c2CCC3)cc1	-35.4%	9.0%	u	-9.9%	39.8µM*	u	-2.6%	2.1%
CC(C)C(=O)Nc1ccc(O)c(-c2csc(N)n2)c1	26.6%	x	11.1%	0.6%	-0.1%	6.7%[46.1 µM]	x	-7.3%
CCCCOP(=O)(OCCCC)C(O)c1ccc(Br)cc1 (centres undefined)	54.1%[activator]	11.2%	2.3%	-7.9%	14.9%	u	-3.4%	-0.5%
c1coc(-c2ccnc(-n3cccc3)n2)c1	11.9%	x	13.9%[46.1 µM]	-2.0%	-4.2%	17.2%[46.1 µM]	x	x
CCC(C)NCCOCCOc1ccc(Cl)c2ccccc12 (centres undefined)	0.0%	x	u	-18.0%	11.2%	u	x	-6.2%
COc1ccc(C2Nc3ccccc3NC3=C2C(=O)CC(C)(C)C3)cc1OC (centres undefined)	0.7%	x	u	3.7%	3.2%	2.8%[46.1 µM]	x	17.1%
COC(=O)c1cc(S(=O)(=O)N2CCCCC2)c[nH]1	1.0%	x	x	6.5%	-9.1%	x	x	5.5%
COc1ccc([N+](=O)[O-])cc1NC(=O)c1ccco1	-17.0%	x	x	-0.7%	-4.6%	5.3%[46.1 µM]	x	-0.1%
COc1cccc(CN2C(=O)c3ccccc3C2C(=O)NCC2CCCO2)c1 (centres undefined)	0.0%	3.2%	2.2%	1.5%	-7.8%	-2.8%	0.0%	-2.1%
COc1ccc(NS(=O)(=O)c2ccc(OC)c(NC(=O)CCC3CCCCC3)c2)cc1	17.0%	-0.2%	u	8.0%	x	6.8%	-6.8%	5.1%
COC(=O)c1ccc(CSc2nnc(-c3ccncc3)n2Cc2ccccc2)o1	-2.6%	-2.5%	-1.5%	2.8%	0.0%	u	0.6%	-2.7%
COc1ccc(Cl)cc1NC(=O)CN(C)C(=O)C1CC1	10.1%	x	-0.4%	12.6%	30.5%	10.5%	x	x
Cc1cccc(C)c1NC(=O)NCCCN1CCN(c2ccccc2)CC1	-11.0%&-11.8%	2.3%	6.1%[46.1 µM]	-1.1%	4.8%	12.1%&12.1%[46.1 µM]	0.7%	x
Cc1csc(C(C)NC(=O)c2ccc(OC3CCN(CCc4ccccc4)CC3)cc2)n1 (centres undefined)	-9.8%	x	x	3.2%	-4.0%	x	x	-6.7%
COc1cccc(CN2CCN(Cc3ccc(O)c(OC)c3)CC2CCO)c1 (centres undefined)	5.3%	x	x	0.0%	-5.0%	1.5%[46.1 µM]	x	4.8%
[O-][n+]1onc2c1CCc1nnc(-c3ccccc3)cc1-2	-13.1%	4.4%	-4.2%	4.7%	u	-8.6%	0.8%	4.5%
O=C(C1CCN(S(=O)(=O)Cc2ccccc2)CC1)N1CCN(c2cccc(Cl)c2)CC1	-29.0%	17.5%	-13.0%[46.1 µM]	x	x	6.5%[46.1 µM]	-5.0%	x
Cc1noc(C)c1C(=O)OCC(=O)Nc1ccccc1Oc1ccccc1	-16.2%	-4.0%	7.3%	-18.0%	-17.8%	-14.9%	-1.0%	-5.6%
Cc1cccnc1NC(=S)NC(=O)c1cccs1	88.7%	2.1%	u	2.9%	4.1%	u	-0.3%	-12.4%
CC(C)CN(CC(C)C)S(=O)(=O)N1CCC(C(=O)NCc2ccco2)CC1	0.4%	x	-33.7%	-1.4%	-6.3%	6.0%	x	x
